# LANA-H2B inh = blocks KSHV LANA binding to histone H2A/H2B; AID 2629; inhibition, % (test concentration not listed); 320,000 tested, 0.6% active; cell-free LANA-H2A/H2B peptide, fluorescence polarization; in the data active = inhibition mostly above about 10%, no sharp cut-off; inactive = mostly below about 6.7%;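 also: stock transfer was 7.5 nL into about 10 µL; 0% = median of vehicle wells and 100% = median of positive control wells; one replicate is shown; the record names a cut of 25% in any replicate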
# Target sequence (Q9QR71 whole entry, looked up): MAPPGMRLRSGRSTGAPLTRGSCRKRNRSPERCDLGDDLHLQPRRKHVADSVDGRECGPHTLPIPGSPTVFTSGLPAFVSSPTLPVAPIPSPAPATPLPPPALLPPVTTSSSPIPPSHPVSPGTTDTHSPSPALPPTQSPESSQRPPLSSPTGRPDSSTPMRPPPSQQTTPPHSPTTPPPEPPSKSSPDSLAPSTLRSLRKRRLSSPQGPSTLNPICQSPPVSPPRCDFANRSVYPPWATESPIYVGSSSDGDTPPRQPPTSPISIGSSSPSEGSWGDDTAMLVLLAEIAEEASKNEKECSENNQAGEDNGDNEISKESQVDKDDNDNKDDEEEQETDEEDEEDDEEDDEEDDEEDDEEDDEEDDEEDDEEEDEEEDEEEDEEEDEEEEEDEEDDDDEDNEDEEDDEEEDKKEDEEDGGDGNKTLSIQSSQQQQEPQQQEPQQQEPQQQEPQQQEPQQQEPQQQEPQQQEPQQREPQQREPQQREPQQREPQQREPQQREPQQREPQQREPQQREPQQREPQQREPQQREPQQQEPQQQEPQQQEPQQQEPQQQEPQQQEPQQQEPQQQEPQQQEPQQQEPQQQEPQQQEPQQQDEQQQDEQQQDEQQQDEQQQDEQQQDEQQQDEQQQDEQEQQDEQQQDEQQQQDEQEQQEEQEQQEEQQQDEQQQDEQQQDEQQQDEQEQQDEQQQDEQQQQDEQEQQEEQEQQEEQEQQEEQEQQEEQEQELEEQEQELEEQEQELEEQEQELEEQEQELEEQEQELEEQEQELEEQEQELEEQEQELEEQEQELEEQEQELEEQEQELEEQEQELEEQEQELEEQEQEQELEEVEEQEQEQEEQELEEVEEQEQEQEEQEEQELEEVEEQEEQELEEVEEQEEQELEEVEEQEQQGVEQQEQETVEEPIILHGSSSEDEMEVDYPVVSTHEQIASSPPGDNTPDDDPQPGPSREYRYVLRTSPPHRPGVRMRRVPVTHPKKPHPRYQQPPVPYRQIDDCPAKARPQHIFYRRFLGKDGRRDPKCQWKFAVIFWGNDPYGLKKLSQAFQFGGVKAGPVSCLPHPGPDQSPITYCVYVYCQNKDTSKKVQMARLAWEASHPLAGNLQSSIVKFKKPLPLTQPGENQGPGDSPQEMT
# RanGTP-Impb inh = inhibitors of RanGTP-importin-beta interaction, primary screen, biochemical, FRET, CFP-Ran, YFP-importin-beta, homogeneous; cell-free CFP-Ran/YFP-importin-beta FRET ratio; inhibition, % (no concentration beside the values); 300,000 tested, 1.1% active;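 active = most replicates above 15%; inconclusive = exactly half above 15%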;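 also: 0% = DMSO wells and 100% = Ran loaded with GDP instead of GTP; wells of about 40 µL received 100 nL stock; the first replicate is given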
# HNF4A DNA FP = change in binding of human HNF4 alpha to DNA; P41235; HNF4a-FITC DNA binding, fluorescence polarization, 1 h; activity change, % at 10 µM; 360,000 tested, 0.3% active; AID 1224865; in the data active = activity change above about 30%, passing the limit was not always enough;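 also: controls were the assay level and a saturating level of protein; the project sought stronger binding though the title names inhibitors; some compounds called inactive have numbers as strong as hits; positive values seem to mean higher polarization but the record does not say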
# Beta2AR agonist = human beta-2 adrenergic receptor agonism by FAP | AID 504454 | P07550 | 340,000 tested, 0.43% active | Am2.2-beta2AR cells, FAP receptor internalization, flow cytometry; reference of the scale not given here | response, % (concentration not given with the values);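 active = response above a set limit, near 3 SD of response in nonfluorescent compounds, cut at about 42% in these data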;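 also: stock transfer was 100 nL into about 11 µL; a reference agonist was the positive control; negative values mostly stem from fluorescent compounds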
# Calb FLC = affects C. albicans growth with fluconazole | C. albicans CaCi-2 (fluconazole-resistant clinical isolate) + fluconazole, Alamar Blue growth, 48 h | growth inhibition, % (no concentration beside the values) | 300,000 tested, 0.57% active | AID 1979;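 active = most replicates above 75%; inconclusive = exactly half above 75%; inactive = most below 75%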;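 also: all wells also contain fluconazole at 8 µg/ml as a sub-toxic cotreatment; 0% = median of DMSO wells and 100% = median of geldanamycin control wells; wells of about 8 µL received 7.5 nL stock; the first replicate is given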
# ALR inh = human ALR oxidase inhibition via reduced H2O2. P55789. purified ALR, DTT oxidation, H2O2 HRP-luminol luminescence. inhibition, % (no concentration beside the values). 290,000 tested, 3.8% active. AID 485317;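 active = mean and each replicate at 75% or more; inconclusive = only one of the two met; inactive = neither met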;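 also: stock transfer was 7.5 nL into about 7.5 µL; 0% = neutral wells and 100% = wells with inactivated enzyme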
# Vif TR-FRET = inhibitors of Vif binding to APOBEC3G peptide, primary screen, biochemical, TR-FRET, GST-Vif 1-94, biotin-A3G peptide, dose response retest (AID 1117319). TR-FRET GST-Vif / biotin-A3G peptide binding; higher % means a stronger effect; test concentration not given here; strong numbers were not always called active. inhibition, %, or IC50 in µM where a hit was titrated. 260,000 tested, 0.57% active;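 active = above the screen mean plus three standard deviations and confirmed in dose response; inconclusive = results disagree or hit not tested in dose response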;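 also: Vif residues 1-94 fused to GST binding biotinylated APOBEC3G peptide 110-148; 0% = full assay without inhibitor and 100% = GST in place of GST-Vif; retest series ran down from 100 µM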
# Starred values were filed as active, the others as inactive; ? = inconclusive; . = not tested or not shown.
SMILES,LANA-H2B inh,RanGTP-Impb inh,HNF4A DNA FP,Beta2AR agonist,Calb FLC,ALR inh,Vif TR-FRET
CCOC(=O)CC(N)c1ccc(OC)cc1 (centres undefined),-3.8,0.0,2.0,4.7,-4.6,-0.5,17.8%
CC1CN(C2CCN(S(=O)(=O)c3ccc4ccccc4c3)CC2)CC(C)O1 (centres undefined),-8.6,0.6,1.8,-4.5,3.4,-0.7,0.7%
CC1CCN(c2nc3c(=O)[nH]c(N)nc3n2[C@@H]2O[C@H](CO)[C@@H](O)[C@H]2O)CC1,0.2,2.0,1.0,2.3,-3.6,11.6,.
O=C(CN1CCCC1)N1CCCc2ccccc21,3.0,1.5,-2.4,2.3,-14.4,-2.9,-3.5%
O=C(COc1ccccc1C(=O)O)Nc1nc2ccc([N+](=O)[O-])cc2s1,-0.6,-0.3,-1.1,18.0,-0.3,-2.5,-10.2%
O=C(COC(=O)/C=C/c1cccc(Br)c1)NC1CC1,6.1,.,2.4,-1.4,.,-5.0,-8.9%
COCN(C#N)c1nc(N(C)C)nc(N(C)C)n1,-10.6,-5.9,-1.2,-0.2,-3.8,-2.7,.
CC(=O)NC12CC3CC(C1)CC(C(=O)Nc1c(C)n(C)n(-c4ccccc4)c1=O)(C3)C2,-6.1,4.6,-1.0,2.9,-7.3,-2.9,.
O=c1cc(-c2ccc(Br)cc2)[nH][nH]1,-3.0,-4.7,4.4,-3.9,-7.3,?,-5.6%
CCOc1ccc(-c2nnc(SCC(=O)NC(C)(C)C)nc2-c2ccc(OCC)c(OC)c2)cc1OC,1.1,3.2,0.5,-13.0,-3.9,-5.6,-4.3%
COc1cc(NC(=O)CCc2nnc3ccc(N4CCCC4)nn23)cc(OC)c1OC,-0.7,2.6,1.3,-8.7,-4.4,-1.2,1.6%
C[C@H](NC(=O)[C@@H]1CCC(=O)N1Cc1ccco1)c1ccccc1,0.3,?,4.6,2.4,-14.4,5.6,22.5%
CC(C)CNc1nc(NC(C)(C)C)nc(Oc2ccc(=O)[nH]n2)n1,-6.6,-4.4,-4.0,-26.3,-5.5,3.9,-7.0%
CCOc1cc(CNCC2CCCO2)cc(Br)c1OCC(N)=O (centres undefined),3.7,1.4,2.7,-4.9,16.5,-3.4,?
CCOc1ccc(N2C(=O)C3Sc4[nH]c(=O)sc4C(/C=C/c4ccccc4)C3C2=O)cc1 (centres undefined),2.7,-12.3,34.3,0.7,-10.6,2.0,.
Cc1nc2ccc(S(=O)(=O)N(C)CC(=O)NCCc3ccccc3)cc2s1,5.3,2.6,-4.6,1.1,6.0,-0.4,.
CC1(C)NS(=O)(=O)Oc2ccccc21,9.4,0.2,1.1,-4.1,-2.0,-2.3,.
O=c1c2ccccc2nc(COc2ccccc2)n1/N=C/c1cc([N+](=O)[O-])ccc1O,3.2,?,0.3,-2.2,-3.3,18.6,?
O=C(c1cccs1)n1nc(-c2ccccc2)nc1NCc1ccc(F)cc1,5.8,-0.3,-1.3,0.2,3.4,-1.0,-0.6%
CC(=O)N1c2ccccc2[C@@H](C)[C@@H]1C,-11.6,.,4.5,0.5,.,-7.3,.
Cc1cccc(-c2noc(CCCOc3ccc(Cl)cc3Cl)n2)c1,0.9,4.8,-2.2,-4.6,-1.2,-25.8,0.0%
COc1ccccc1N1CCN(C(=O)N2CCOCC2)CC1,0.6,-2.0,-2.1,1.8,-24.3,28.4,8.8%
CC(=O)C1=C(O)C(=O)N(CCc2ccccc2)C1c1ccccc1[N+](=O)[O-] (centres undefined),-2.5,4.8,-0.9,3.5,-18.6,-243.2,.
COC(=O)c1cccc(CN2C(=O)SC(Nc3ccc(C)cc3)C2=O)c1 (centres undefined),1.8,-1.1,-0.9,1.7,1.9,0.8,.
O=C1N2CCSC2=NC1(Nc1ccccn1)C(F)(F)F (centres undefined),1.6,-3.2,-0.6,1.7,-3.6,2.1,-1.9%
CC1CCN(c2ccc(C(=O)O)cc2NS(=O)(=O)c2ccc(Br)cc2)CC1,1.8,1.2,1.8,0.3,-3.4,25.8,-5.5%
Nc1nc(COc2ccccc2C=O)nc(Nc2ccccc2)n1,0.0,5.2,2.4,1.5,14.0,.,.
Cc1ccc(S(=O)(=O)CC(=O)c2ccc(C(C)(C)C)cc2)cc1,10.1,0.3,-0.1,4.2,3.8,-14.2,19.5%
CCn1c(SCC(=O)NC(C)(C)C)nnc1-c1ccoc1C,2.3,1.3,-1.4,5.1,-6.0,-4.7,0.8%
CCN(CC)C(=O)c1ccc2c3c(cccc13)C(=O)N(CCc1ccc(OC)c(OC)c1)C2=O,.,3.3,-1.5,13.7,-1.4,.,.
O=C(NCc1ccccc1)c1ccc(Br)o1,1.4,.,1.9,-10.0,.,.,?
CCC(=O)c1ccc(OCC(=O)OC(C)C(=O)N2CCc3ccccc32)cc1 (centres undefined),3.5,2.6,-0.7,-1.5,-4.5,.,-2.2%
COc1ccc(C2CC(c3ccc(F)cc3)=NN2c2ccccc2)cc1OC (centres undefined),-9.6,-4.1,16.4,-4.3,-5.1,-4.8,-6.5%
COc1ccccc1N1CCN(C(=O)CSc2nnc(NC(=O)c3ccco3)s2)CC1,-0.9,-0.4,-0.8,3.9,26.1,65.0,?
CC(=O)Nc1ccc(N=Cc2ccc[nH]2)cc1,-2.6,.,3.3,3.0,-2.2,98.1*,8.5%
COCCCNC(=O)C1CCC(CNS(=O)(=O)c2ccc(Cl)cc2)CC1 (centres undefined),3.8,0.1,-0.2,0.4,11.0,1.1,-0.2%
O=C(Nc1c(Cl)cc2c(c1Cl)Cc1cc([N+](=O)[O-])ccc1-2)C(Cl)Cl,.,.,-0.2,10.4,.,.,-14.1%
Cc1c(Cl)cccc1NC(=O)N1CCN(C(=O)c2ccco2)CC1,4.5,0.9,0.8,5.0,-5.2,-2.2,.
Cc1cc(Cl)ccc1C(=O)C1CCCN(C(=O)c2cscn2)C1 (centres undefined),4.1,1.0,-1.2,-1.0,-1.3,11.4,.
Cc1cc(Oc2ccccc2)nc(SCC(=O)Nc2ccc(Cl)c(Cl)c2)n1,-5.5,1.8,-2.2,0.6,-0.7,-3.3,-0.1%
COc1ccccc1C(=O)Nn1c(C2CCC2)nc2ccccc2c1=O,2.0,-1.6,-0.9,-1.7,19.2,-2.6,-0.6%
CN1CCN(c2ccccc2NC(=O)c2ccc(-c3ccccc3[N+](=O)[O-])o2)CC1,0.8,-0.4,-0.1,10.7,10.4,-17.7,.
COc1ccccc1NC(=O)COc1ccc(-c2nn(C)c(=O)c3ccccc23)cc1,4.3,-2.2,0.5,5.4,-3.3,.,.
C=CCn1c(SCC(=O)NC(=O)NCCC)nnc1C1CCCCC1,-1.8,2.7,-3.1,10.2,-2.6,-24.0,22.2%
Cc1ccc(NN=Nc2nc3c([nH]2)c(=O)n(C)c(=O)n3C)cc1,.,2.8,-0.9,8.2,-7.8,.,.
O=C(/C=C/c1ccco1)NCC(=O)N/N=C/c1ccccc1[N+](=O)[O-],0.9,2.8,3.2,1.0,?,3.7,11.3%
CCOc1ccc(-c2cccc(NC(=O)c3ccco3)c2)nn1,-0.4,-7.3,3.4,1.7,13.6,.,-2.9%
CCCOc1cccc(NC(=O)c2c(-c3ccccc3)noc2C)c1,2.0,5.5,-1.0,-13.5,3.6,2.5,?
COc1ccc(CCNC(=O)c2ccccc2-c2ccccc2C(=O)O)cc1OC,1.1,3.7,-0.3,-12.0,3.0,-41.7,-1.3%
O=C(O)c1ccccc1-c1ccccc1C(=O)Nc1ccccc1Br,1.1,-1.2,3.7,-2.5,0.0,-2.5,.
Cc1ccc(NC(=O)N2CCCC2C(=O)NCC2CCCO2)cc1 (centres undefined),-3.8,-5.9,-3.9,-1.1,44.5,-17.5,3.6%
Nc1nc(SCC(=O)NCCC(c2ccccc2)c2ccccc2)n[nH]1,0.6,-0.4,.,4.0,18.8,-1.1,-2.9%
O=C(N/N=C/c1ccco1)c1ccc(OCc2ccccc2)cc1,-0.9,?,-1.7,7.1,14.7,3.6,?
COCCCN1C(=O)c2ccc(C(=O)Nc3ccccc3OC)cc2C1=O,1.6,4.3,-0.2,-5.3,3.0,-15.0,24.9%
O=C(NC(=S)Nc1ccccc1O)c1ccccc1Cl,6.6,-0.4,1.4,-8.6,-1.6,63.3,4.3%
COC(CNC(=O)C1CCC(CNS(=O)(=O)c2c(C)cc(C)cc2C)CC1)OC (centres undefined),-1.5,-0.7,-1.7,5.2,14.5,.,-4.4%
Cc1noc(/C=C/N(C)C)c1S(=O)(=O)N(C)Cc1ccc(F)cc1,-0.1,-0.4,3.2,-5.3,12.3,10.7,.
O=C(Cn1cccc1C(=O)c1ccccc1)NCCCc1ccccc1,5.0,-1.5,-1.9,-0.2,-5.6,-9.5,1.6%
CCCc1cc(=O)[nH]c(SCC(=O)Nc2ccc(C)c(S(=O)(=O)N3CCCCC3)c2)n1,0.3,.,0.8,1.8,.,-3.1,-1.3%
COc1ccc(C(=O)C2CCCN(C(=O)c3n[nH]c4c3CCCC4)C2)cc1OC (centres undefined),1.4,1.6,-3.3,0.8,-29.8,-4.9,-4.4%
# Additional records:
SMILES,LANA-H2B inh,RanGTP-Impb inh,HNF4A DNA FP,Beta2AR agonist,Calb FLC,ALR inh,Vif TR-FRET
CCNC(=O)NC(=O)CSc1ccc(S(=O)(=O)N(C)C2CCCCC2)cn1,6.8,.,-2.1,1.2,.,-5.2,-14.6%
O=C(c1ccc(Cl)cc1Cl)N1CCOCC1,.,.,-1.6,-6.5,.,.,-1.1%
Cc1nc(NC(=O)C2CC2)sc1C(=O)Nc1cccc(Cl)c1,1.1,-3.9,2.5,-2.6,39.1,47.4,.
CCOC(=O)C1CCCN(c2cc(=O)n(C3CCCCC3)c(=O)[nH]2)C1 (centres undefined),6.5,7.1,6.2,-3.0,-36.0,-1.1,1.2%
CCc1ccc(NC(=O)N(Cc2ccco2)C(C)c2cccs2)cc1 (centres undefined),2.0,4.0,4.9,9.6,4.5,-21.1,1.7%
Fc1ccccc1-c1csc(=Nc2cccnc2)n1CC1CCCO1 (centres undefined),7.4,-1.5,-0.6,8.6,7.3,-6.0,-3.2%
COc1ccc(CC(=O)NCc2n[nH]c(=S)n2-c2ccccc2)cc1,-1.3,-2.9,0.7,-2.0,0.3,29.3,-8.8%
CCOC(=O)c1ccc(OCC2NCCc3cc(OC)c(OC)cc32)cc1 (centres undefined),-1.1,3.8,1.5,-3.9,-3.9,0.0,.
Cc1nnsc1-c1nnc(SCC(=O)c2ccc(F)cc2)n1C1CC1,3.7,1.3,-1.6,-2.6,-2.3,-4.6,2.8%
CCN=C1SC(CC(=O)Nc2ccc3c(c2)OCO3)C(=O)N1CC (centres undefined),5.6,-1.2,0.9,-0.2,17.0,-2.1,.
O=S(=O)(c1ccc2c(c1)OCCO2)N1CCC(c2nc3ccccc3s2)CC1,5.9,1.0,-0.5,0.0,12.6,-7.0,2.7%
CCOc1nc(Nc2ccc(OC)cc2)nc(N2CCOCC2)n1,1.3,3.7,-3.2,5.5,6.3,-10.1,-4.0%
CN(C)S(=O)(=O)NC(c1ccccc1)c1ccccc1,-3.3,-3.3,-0.5,11.6,-11.3,-18.8,5.7%
COCCCNC(=O)C(C)N1c2cccc3cccc(c23)S1(=O)=O (centres undefined),-10.4,-2.0,2.8,-1.5,5.7,-85.0,.
COc1ccc(OCC(=O)NNC(=O)Cn2c(=O)cnc3ccccc32)cc1,.,.,0.5,-2.7,.,.,6.8%
CC1=CC(=O)C(C(C)=Nc2ccccc2[N+](=O)[O-])C(=O)O1 (centres undefined),.,.,-1.9,-2.4,.,.,5.0%
O=Cc1ccc2oc3nc4n(c(=O)c3c(=O)c2c1)CCCS4,2.4,-3.6,-31.9,-3.0,18.9,-7.2,15.8%
O=C(O)CC1SC(=Nc2cccc(O)c2)NC1=O (centres undefined),2.7,-1.9,5.2,-6.6,-12.6,6.8,7.2%

# From PubChem BioAssay

# This is a random part of the collection; about 6.3% have a hit in one of these screens.
